Screens: PubChem BioAssay, National Center for Advancing Translational Sciences (NCATS)
2A StopGo = High Throughput Screening for Foot and Mouth Disease Virus Antivirals. human cells with a luciferase reporter of 2A StopGo recoding; control for the full effect not named in the record. AID 1159524, 2015. Potency, µM (series often up to 57.9 µM), inactives show top-dose signal change, negative = less light. 410,000 tested, 1.2% active; active = well fitted falling curve with a large enough effect; inconclusive = small, poorly fitted or top-dose-only effect; inactive = no such curve, though single readings can be large or run the other way; tested in HEK293T cells; also: nearly all actives have a fitted effect of over 45% in size; luciferase light after 4 h
RE007 growth inh = qHTS Assay for Inhibitors of the HIV-1 protein Vpr; Potency, µM (series often up to 92.2 µM), inactives show top-dose activity change, negative = less growth; 360,000 tested, 0.21% active; S. pombe RE007 Vpr strain, BacTiter-Glo ATP luminescence, 24 h; control for the full effect not named in the record; active = well fitted falling curve with a large enough effect; inconclusive = small, poorly fitted or top-dose-only effect; inactive = no such curve, though single readings can be large or run the other way;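 also: nearly all actives have a fitted effect of over 50% in size; the assay follows cell death caused by Vpr and the record does not say whether a fall means rescue or toxicity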
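Fission yeast strain RE007, carrying one chromosomally integrated HIV-1 vpr copy, was seeded at OD 0.01 in PMG+AL medium with 23 nL pinned compound. After 24 h at 30 °C and 99% humidity, viability was read by BacTiter-Glo luminescence.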
Starred values were filed as active, the others as inactive; ? = inconclusive; [ ] = dose if it differs, or a comment. % is scaled to controls: 0 for no effect and ±100 for the full control effect; potency is read from the fitted curve at half-maximal effect.

Compound	2A StopGo	RE007 growth inh
CC1(C(=O)NS(=O)(=O)c2cccc(F)c2)CCN1C(=O)Cc1cccc2ccccc12 (stereo not drawn)	-13%	6%
O=C(/C=C/[C@H]1O[C@@H](n2cnc3c(NC(=O)c4ccccc4)ncnc32)[C@H](O)[C@@H]1O)N[C@@H](CO)Cc1c[nH]c2ccccc12	-17%	-1%
COc1cccc(-c2cc3nc(NCCCN(C)C)n(C)c(=O)c3s2)c1	-8%	-29%
Cc1cccc(C)c1NC(=O)CN(C)C(=O)c1ccc(OCc2ccccc2)cc1	-4%	7%
C[C@H](CO)N1C[C@H](C)[C@@H](CN(C)S(=O)(=O)c2ccc(Oc3ccccc3)cc2)OCc2cn(nn2)CCCC1=O	-16%	-25%
COCOc1ccc(-c2ncc(OC)nc2NC(=O)c2cc(C)oc2C)cc1	-10%	27%
CCCc1nc2cc(C)c(Br)c(C)n2c1Cc1ccsc1	-21%	-10%
CCNC(=O)C1(C)CCCN(Cc2cccc3c(OC)cc(C(=O)OCC)cc23)C1 (stereo not drawn)	5%	-23%
CCC(=O)N(C)C[C@H]1Oc2ncc(C#Cc3ccncc3)cc2C(=O)N([C@@H](C)CO)C[C@@H]1C	-21%	-14%
O=C(NCCc1nc(-c2ccccc2)no1)c1ccccc1	0%	7%
O=C(c1ncn2c1c(=O)[nH]c1ccccc12)N1CCc2ccccc2C1	-3%	-9%
C[C@H]1CN(S(=O)C(C)(C)C)[C@@H](CCO)/C1=C\CCO (stereo partly drawn)	-1%	7%
Nc1nc2ncccn2c1-c1ccc(C(F)(F)F)cc1	-9%	-5%
COc1ccccc1-c1cc2nc(-c3ccccc3)cc(N3CCN(C(=O)c4ccoc4)CC3)n2n1	7.9µM*	-20%
CC(CC(=O)Nc1ccc2c(c1)c(=O)n(C)n2-c1ccccc1F)c1ccccc1 (stereo not drawn)	17%	14%
CC1(C)OC(=O)C2=C(C[C@@H](CCc3ccccc3)O[C@H]2CCc2cccc(Cl)c2)O1	-26%	4%
CCOC(=O)C[C@H]1c2ccccc2S(=O)(=O)N1Cc1cc(OC)c(OC)c(OC)c1	-17%	3%
COCCNC(=O)C1(C)CCCN(C(=O)c2ccco2)C1 (stereo not drawn)	-2%	17%
C=C(C)[C@@H]1[C@H]2OC(=O)[C@H]1[C@]1(O)C[C@H]3O[C@]34C(=O)O[C@H]2[C@]14C	-1%	13%
CC1(C(=O)NCc2cccs2)CCN1C(=O)Cc1cccc2ccccc12 (stereo not drawn)	-18%	7%
COc1cc(NC(=O)c2ccc(-c3cccnc3)c3ccoc23)cc(OC)c1OC	-22%	-18%
CCCNC(=O)C1(C)CCCN(C(=O)Cc2cccc(OC)c2)C1 (stereo not drawn)	13%	9%[18.4 µM]
CC(=O)c1ccc(-c2cnc3c(NC=O)cc(-c4ccc(C(=O)N5CCOCC5)cc4)cn23)cc1	-18%	4%[18.4 µM]
CCOC(=O)[C@]12CCCC=C1N(Cc1ccco1)C(=O)[C@H](CC(=O)N1CCOCC1)C2	-20%	16%
O=[N+]([O-])c1ccc(Br)c(CN2CCN(c3ncc(Cc4ccccc4)cn3)CC2)c1	?	-17%

Entries of single compounds from above. Order of values: 2A StopGo | RE007 growth inh
Cc1cccc(C)c1NC(=O)CN(C)C(=O)c1ccc(OCc2ccccc2)cc1 reads -4% | 7%
CC(=O)c1ccc(-c2cnc3c(NC=O)cc(-c4ccc(C(=O)N5CCOCC5)cc4)cn23)cc1 reads -18% | 4%[18.4 µM]

(next part)
Compound	2A StopGo	RE007 growth inh
C[C@@H]1CN([C@@H](C)CO)C(=O)c2cc(NC(=O)C3CCCCC3)ccc2O[C@@H](C)CCCCO[C@H]1CN(C)S(=O)(=O)c1ccc(Cl)cc1	-14%	5%
C[C@@H]1CN([C@@H](C)CO)S(=O)(=O)c2ccc(Br)cc2O[C@@H]1CN(C)Cc1ccccn1	5%	-2%
O=C(c1[nH]c(C(F)(F)F)nc1-c1ccccc1)N1CCCCC1	-6%	7%
CCCCNC(=O)C1(C)CCN1C(=O)c1ccncc1 (stereo not drawn)	0%	-8%
CCCCc1c(-c2ccc(OC)c(OC)c2)ncn1CCc1ccccc1OC	?	?
O=C(c1[nH]c(C(F)(F)F)nc1-c1ccccc1)N1CCC2(CC1)C(=O)NCN2c1ccccc1	-12%	-7%
c1ccc2c(C(c3nnnn3-c3ccc4c(c3)OCCO4)N3CCOCC3)ccnc2c1 (stereo not drawn)	-9%	18%
C[C@H](CO)N1C[C@H](C)[C@H](CN(C)S(=O)(=O)c2ccc(Cl)cc2)OCc2cnnn2CCCC1=O	12%	3%
C[C@@H]1CN([C@H](C)CO)C(=O)CCCn2cc(nn2)CO[C@H]1CN(C)C(=O)c1ccc(N2CCN(C)CC2)cc1	-3%	-1%
COC(=O)[C@@]1(Cc2ccc(F)cc2)[C@H]2c3cc(C(=O)N4CCCC4)n(C)c3C[C@H]2CN1C(=O)c1ccccc1	-27%	10%
Cc1cccc(-c2cnc(C(O)c3ccc4ccccc4c3)[nH]2)c1 (stereo not drawn)	6%	-29%
Clc1ccccc1Nc1nc(NCc2ccccc2)nc2ccsc12	-28%	?
CCCNC(=O)C1(C)CCCN(C(=O)c2cccc(C#N)c2)C1 (stereo not drawn)	-15%	1%
OC(c1ccc(F)cc1)c1nc(-c2ccc(F)c(Cl)c2)cs1 (stereo not drawn)	13%	?
NC(=O)c1ccsc1NC(=O)CN1CCN(S(=O)(=O)c2ccccc2C(F)(F)F)CC1	?	-6%
COc1ccc(C(C)(O)c2nc(-c3cnc4ccccc4c3)cs2)cc1 (stereo not drawn)	-10%	2%[18.4 µM]
Cc1ccc(-c2ccc(CN3C(C(C)C)C(=O)N(Cc4cn(CCC5OCCCO5)nn4)CCS3(=O)=O)cc2)cc1 (stereo not drawn)	?	-7%
Cc1ccc2c(c1)CO[C@@]21O[C@H](CCO)C[C@H](O)[C@H]1O	-12%	-12%
CC(=O)N1c2ccc(S(=O)(=O)NCCC(=O)Nc3ccc(Cl)cc3)cc2CC1C (stereo not drawn)	-18%	8%
CC(C)C[C@@H]1CN(CCCC[C@H]2CNC(=O)C(=O)N2CCC2CCCCC2)C(=O)C(=O)N1CCc1ccc(O)cc1	-15%	-12%
COc1ccc(CC(N)c2csc(NC(=O)NCc3ccccc3)n2)cc1 (stereo not drawn)	-26%	19%
CCCCN1CC(COCc2ccccc2)Oc2cccc(Oc3ccc(OC)cc3)c2S1(=O)=O (stereo not drawn)	43%[activator]	5%
O=C1NC(Cc2ccccc2)c2nc3ccccc3c(=O)n2-c2ncccc21 (stereo not drawn)	-22%	-5%
O=C(C(=NNc1ccccc1)C(=S)Nc1ccccc1)c1ccccc1	-18%	-1%
COc1cc(C(=O)N2CC(=O)Nc3ccccc32)cc(OC)c1OC	-16%	1%

Looked up one by one from the entries so far, four records:
Compound	2A StopGo	RE007 growth inh
CC(=O)N1c2ccc(S(=O)(=O)NCCC(=O)Nc3ccc(Cl)cc3)cc2CC1C (stereo not drawn)	-18%	8%
COc1cc(C(=O)N2CC(=O)Nc3ccccc32)cc(OC)c1OC	-16%	1%
Cc1cccc(-c2cnc(C(O)c3ccc4ccccc4c3)[nH]2)c1 (stereo not drawn)	6%	-29%
C[C@@H]1CN([C@@H](C)CO)C(=O)c2cc(NC(=O)C3CCCCC3)ccc2O[C@@H](C)CCCCO[C@H]1CN(C)S(=O)(=O)c1ccc(Cl)cc1	-14%	5%

Next part
Compound	2A StopGo	RE007 growth inh
CCOc1ccc2nc(S(=O)(=O)NC(=O)C3(C)CCN3C(=O)c3c(C)noc3C)sc2c1 (stereo not drawn)	-10%	1%
Cc1sc2ncnc(SCC(=O)NC3CCS(=O)(=O)C3)c2c1C (stereo not drawn)	-23%	-3%
CC(C)C[C@@H]1COc2cc(N3CCSCC3)ccc2S(=O)(=O)N1	?	1%
C[C@H]1CCCCO[C@H](CN(C)C(=O)Nc2ccc(F)cc2)[C@@H](C)CN([C@@H](C)CO)C(=O)c2cc(NC(=O)Nc3ccc4c(c3)OCO4)ccc2O1	-21%	1%
CCCCn1nnnc1C(c1ccc(OC)cc1)N1CCC2(CC1)C(=O)NCN2c1ccccc1 (stereo not drawn)	-14%	-8%
CCCCC[C@H](C)N1C[C@H](COCc2ccccc2)Oc2cc(N3CC[C@H](N(C)C)C3)ccc2S1(=O)=O	-8%	4%
COc1c(C)cc(C(O)c2ncc(-c3cccc(C(F)(F)F)c3)[nH]2)cc1C (stereo not drawn)	-12%	-9%
Cc1cccc(NC(=O)CSCC(=O)Nc2ccccc2C(=O)N2CCCCC2)c1	9%	-3%
COc1cccc(CNc2nc3cc(-c4cccc(C(F)(F)F)c4)sc3c(=O)n2C)c1	-24%	1%
COc1ccc(C(CNC(=O)c2ccc(OCc3csc(C)n3)cc2)N2CCCC2)cc1 (stereo not drawn)	-16%	-6%
CNC(=O)c1ccc2cc(OC)c(OC)cc2c1	-3%	-14%
CSCCC(C(=O)Nc1c(C)cccc1C)N1CCC(Cc2ccccc2)CC1 (stereo not drawn)	?	-15%
O=C(NCc1ccco1)c1ccc2sc([C@@H]3O[C@H](CO)[C@H](O)[C@H](O)[C@H]3O)nc2c1	-28%	6%[18.4 µM]
O=C(O)C1C(c2ccccc2)=C1c1ccc(Br)cc1 (stereo not drawn)	0%	-10%
Cc1c([N+](=O)[O-])cnc(Sc2ccccc2)c1[N+](=O)[O-]	22µM*	?
CCO/C(C)=N/Oc1cc(OC)cc(OC)c1	-7%	-5%
CN(CCc1ccccc1)C(=O)c1cccc(NC(=O)Cc2cccc(NC(=O)C3CCN(C(=O)C4CCCCC4)CC3)c2)c1	?	2%
Cc1ccc(NC(=O)c2nc[nH]c2C(=O)N(C)CCO)cc1	-1%	-13%
C#CCNC(=O)C[C@@H]1C[C@@]2(C(=O)OCC)CCC=C2N(Cc2ccco2)C1=O	-6%	5%
CCCCNC(=O)C[C@@H]1C[C@@]2(C(=O)OC)CCCCC=C2N(Cc2ccc3c(c2)OCO3)C1=O	-6%	-7%
NS(=O)(=O)c1ccc(CCNc2ccn3nc(-c4cccc(C(F)(F)F)c4)cc3n2)cc1	?	15%
CC(=O)Nc1ccc(S(=O)(=O)N(C)CC(=O)OC(C)C(=O)NC2(C#N)CCCCC2)cc1 (stereo not drawn)	-21%	1%
CCCCCC(=O)N1C[C@H](O)[C@@H](n2cc(COC(=O)c3ccccc3)nn2)C[C@@H]1c1ccc(OC)cc1	-24%	0%
COc1ccc(-c2c(-c3ccsc3)oc3ccc(N4CCOCC4)cc23)cn1	4%	4%
CC1(C(=O)NS(=O)(=O)c2ccccc2)CCN1C(=O)Cc1ccccc1 (stereo not drawn)	-1%	6%
COc1ccc(C(=O)c2c(-c3ccc(OC)cc3)oc3ccc(-c4ccc(OC)nc4)cc23)cc1	-22%	-1%
CSc1ccc(OC2(C)CCN(Cc3ccc(C(C)C)cc3)C2)cc1 (stereo not drawn)	-14%	4%[18.4 µM]
Cc1ccc(CN2C(=O)CN(S(C)(=O)=O)CC2(C)C(=O)NC(C)C)cc1 (stereo not drawn)	-9%	0%
c1ccc2c(c1)CNCc1cnnn1-2	-5%	6%
OC(c1cccc(F)c1)c1ncc(-c2ccc(C(F)(F)F)cc2)[nH]1 (stereo not drawn)	16%	9%
CCCc1nc2ccc(C(=O)OC)cn2c1Cc1ccc(C)cc1	15%	-30%
O=C1NC(Cc2ccc(O)cc2)c2nc3ccc(Br)cc3c(=O)n2-c2ncccc21 (stereo not drawn)	?	14%
CC1(Cc2ccccc2C#N)C(=O)Nc2ccc(-c3ccc4[nH]ccc4c3)cc21 (stereo not drawn)	-10%	1%
COc1cc(-c2nnc(NC(=O)CS(=O)(=O)c3ccc(Cl)cc3)o2)cc(OC)c1OC	-12%	-1%
COc1ncnc2c1ncn2CCCNCCN1CCOCC1	0%	6%
CC1(C(=O)NS(=O)(=O)c2ccc(F)cc2F)CCN1C(=O)Cc1cccc2ccccc12 (stereo not drawn)	-15%	-1%
NNC(=O)c1nc2ccccc2s1	58%[activator]	17%
CCN(CC)C(=O)C1=C(C)N(Cc2ccccc2)C(=O)C(CC(=O)NCc2ccco2)C1 (stereo not drawn)	0%	-8%
O=C1N[C@@H](Cc2ccccc2)C(=O)N2[C@H]1C[C@H]1c3ccccc3N(OOSc3ccccc3)[C@H]12	-17%	0%
Cc1noc(C)c1S(=O)(=O)NC(=O)C1(C)CCN1C(=O)c1ccccc1CCc1ccccc1 (stereo not drawn)	-21%	-6%[18.4 µM]
CCOc1ccccc1OCCCC(=O)Nc1ccc(S(=O)(=O)Nc2cc(C)nc(C)n2)cc1	59%[activator]	-2%
Cc1ccc(F)cc1-c1nc(NC(C)C)nc2cc(-c3ccccc3)sc12	-28%	-13%

A portion of the library; the hit share may differ from the screen's.
